# Screening data as filed in PubChem BioAssay.
# E coli growth: blocks Escherichia coli growth; OD600, 23 h; stronger effect = lower value; OD600 absorbance (test concentration not listed); actives 0.21% (n = 330,000);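 active means OD600 absorbance below the run mean of sample wells minus 3.6 SD, in any replicate, cut at about 0.56 in these data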;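 further: stock transfer was 300 nL into about 60 µL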
# Vif A3G: HIV-1 Vif–A3G interaction blockers – biochemical, TR-FRET, GST-Vif 1-94, biotin-A3G peptide, dose response retest, primary screen (AID 1117319). one-dose inhibition, %; IC50 in µM for titrated hits. actives 0.57% (n = 260,000). TR-FRET GST-Vif / biotin-A3G peptide binding; higher % means a stronger effect; test concentration not given here; strong numbers were not always called active;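 active means above the screen mean plus three standard deviations and confirmed in dose response; inconclusive means results disagree or hit not tested in dose response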;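 further: Vif residues 1-94 fused to GST binding biotinylated APOBEC3G peptide 110-148; 0% = full assay without inhibitor and 100% = GST in place of GST-Vif; retest series ran down from 100 µM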
# Ecoli rRNA inh: inhibitors of bacterial rRNA selective over humanized ribosomes | E. coli WT GFP vs humanized-ribosome RFP mutants, fluorescence, 24 h; stronger effect = lower value; DMSO median 0, no signal -100 | GFP signal change (wild-type ribosome), % (test concentration not listed) | actives 1.6% (n = 350,000) | AID 720706;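 active means significant combined selectivity score with lowered wild-type GFP, culture density cut under 30%, mutant RFP and density less affected; inactive means any of these conditions unmet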; further: one replicate is shown; some compounds called inactive have numbers as strong as hits
# ALR H2O2 inh: human ALR oxidase inhibition via reduced H2O2; purified ALR, DTT oxidation, H2O2 HRP-luminol luminescence; inhibition, % (test concentration not listed); actives 3.8% (n = 290,000); AID 485317;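 active means mean and each replicate at 75% or more; inconclusive means only one of the two met; inactive means neither met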;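 further: stock transfer was 7.5 nL into about 7.5 µL; 0% = neutral wells and 100% = wells with inactivated enzyme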
# HNF4A DNA FP: change in binding of human HNF4 alpha to DNA | P41235 | HNF4a-FITC DNA binding, fluorescence polarization, 1 h | activity change, % at 10 µM | actives 0.3% (n = 360,000); in the data active means activity change above about 30%, passing the limit was not always enough;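 further: controls were the assay level and a saturating level of protein; the project sought stronger binding though the title names inhibitors; some compounds called inactive have numbers as strong as hits; positive values seem to mean higher polarization but the record does not say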
# Target sequence (P41235 whole entry, looked up): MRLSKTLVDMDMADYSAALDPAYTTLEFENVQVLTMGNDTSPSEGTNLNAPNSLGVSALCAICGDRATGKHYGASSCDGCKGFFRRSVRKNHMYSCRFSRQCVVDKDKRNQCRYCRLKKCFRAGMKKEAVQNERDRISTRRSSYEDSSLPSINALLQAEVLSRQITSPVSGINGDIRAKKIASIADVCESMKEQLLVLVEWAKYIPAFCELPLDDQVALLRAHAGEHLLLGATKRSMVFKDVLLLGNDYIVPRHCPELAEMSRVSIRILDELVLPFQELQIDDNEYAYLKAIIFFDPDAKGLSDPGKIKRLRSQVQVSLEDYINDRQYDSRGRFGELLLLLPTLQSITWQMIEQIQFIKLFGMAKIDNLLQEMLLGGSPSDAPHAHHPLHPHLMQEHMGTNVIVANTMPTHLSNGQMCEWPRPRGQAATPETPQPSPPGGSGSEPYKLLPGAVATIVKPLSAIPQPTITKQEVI
# MLL AF4-AF9 inh: blocks AF4 peptide binding to human AF9 | P42568 | AlphaScreen, biotin-AF4 peptide binding to FLAG-AF9 | inhibition, % at 10 µM | actives 0.47% (n = 350,000) | AID 651704;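 active means every replicate reaching a set inhibition limit, whatever the replicate mean, cut at about 25% in these data; inconclusive means mean inhibition reaches that limit but some replicates miss it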;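 further: 0% = plate neutral control median and 100% = total signal loss; the record names both 10 and 1 µM as test concentration; the first replicate is given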
# Target sequence (P42568 whole entry, looked up): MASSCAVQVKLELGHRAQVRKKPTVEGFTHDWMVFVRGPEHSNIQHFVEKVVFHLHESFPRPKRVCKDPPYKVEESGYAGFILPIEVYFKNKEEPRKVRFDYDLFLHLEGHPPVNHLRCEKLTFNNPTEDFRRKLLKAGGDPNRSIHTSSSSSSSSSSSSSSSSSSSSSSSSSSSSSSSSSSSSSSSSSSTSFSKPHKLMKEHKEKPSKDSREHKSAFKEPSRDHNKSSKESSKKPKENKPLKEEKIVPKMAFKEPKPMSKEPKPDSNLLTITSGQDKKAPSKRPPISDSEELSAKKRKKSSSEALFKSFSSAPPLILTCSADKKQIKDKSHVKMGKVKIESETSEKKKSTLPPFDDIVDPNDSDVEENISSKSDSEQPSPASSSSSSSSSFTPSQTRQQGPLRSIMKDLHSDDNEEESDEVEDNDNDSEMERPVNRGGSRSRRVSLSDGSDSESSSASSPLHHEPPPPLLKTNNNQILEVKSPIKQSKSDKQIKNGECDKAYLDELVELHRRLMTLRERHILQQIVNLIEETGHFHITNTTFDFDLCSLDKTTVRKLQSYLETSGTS
# FGF22 binding: binders of recombinant human FGF22 by thermal shift; SYPRO orange fluorescence; percent of sucrose octasulfate shift, DMSO zero; calls only at 9.99 µM; actives 1.5% (n = 340,000); AID 651658;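 active means melting point raised past a set limit in the mean and every replicate; inconclusive means no clear call; three in four hits are not shown here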
# Ecoli rRNA inh OD600: second read-out of Ecoli rRNA inh, no call of its own (marks repeat the call); OD600 change, %; measured here: OD600 growth;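 optical density of the mix in the first replicate; 0 = DMSO median and -100 = no signal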
# Ecoli rRNA inh RFP: also measured in Ecoli rRNA inh; calls as there; RFP signal change, %; measured here: RFP humanized mutant strains;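 first replicate; 0 = DMSO median and -100 = no signal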
# An asterisk follows results filed as active; i = inactive; ? = inconclusive; / = not tested or not shown; & = joins results of further samples. This is a subset (hit frequency here may not be typical).
SMILES,E coli growth,Vif A3G,Ecoli rRNA inh,Ecoli rRNA inh OD600,Ecoli rRNA inh RFP,ALR H2O2 inh,HNF4A DNA FP,MLL AF4-AF9 inh,FGF22 binding
COc1ccc([C@H]2CC(=O)C[C@@H](CCn3cc(-c4cccnc4)nn3)O2)cc1,/,/,9.3,10.7,5.1,/,4.2,-2.2,i
Cc1noc(C)c1S(=O)(=O)Nc1ccc2c(c1)C(=O)N([C@H](C)CO)C[C@H](C)[C@H](CN(C)Cc1ccc3c(c1)OCO3)OCCCC[C@@H](C)O2,/,/,1.3,9.5,2.7,/,/,1.2,i
CC(=O)N1CCN(S(=O)(=O)c2cccc(C(=O)Nc3nc4ccccc4[nH]3)c2)CC1,0.733,12.9%,/,/,/,-12.8,-3.5,/,/
O=C(C[C@H]1CC[C@@H]2[C@H](COC[C@@H](O)CN2Cc2cccc(F)c2)O1)NCc1cccc(F)c1,/,/,-3.6,-3.6,1.7,/,/,-0.4,i
Cc1nc(N2CCN(C(=O)c3ccco3)CC2)nc2c1C(=O)CC(C)C2 (stereo not drawn),0.653,-2.4%,1.5,3.8,2.6,-0.4,0.8,-2.2,i
CCCSC1=C(C#N)C(c2cccnc2)C(C(=O)OCC)=C(c2ccccc2)N1 (stereo not drawn),0.699,0.5%,/,/,/,1.6,-2.3,/,/
CCOC(=O)c1c(C)[nH]c(-c2csc(C)n2)c1C,0.699,3.4%,-6.9,-17.9,-4.2,49.8,-0.6,5.1,i
CCN(CC)c1ccc(-c2nnc(SCC(=O)Nc3ccccc3C#N)n2-c2ccccc2)cc1,0.707,31.3%,/,/,/,19.2,1.3,/,/
C[C@@H]1CN([C@H](C)CO)C(=O)c2cc(C#CCN(C)C)cnc2O[C@H]1CN(C)C(=O)c1cnccn1,/,/,5.5,21.5,-1.4,/,/,-4.6,i
COc1cc2c(cc1OC)-c1cc(Nc3ccccc3C)nc(=O)n1CC2,0.665,-1.0%,-0.5,-8.6,-1.3,-9.3,2.1,1.9,i
C[C@H]1CN([C@@H](C)CO)C(=O)c2cc(NC(=O)c3ccncc3)ccc2O[C@H]1CN(C)Cc1ccccc1,/,/,2.8,5.7,-1.0,/,/,0.9,i
CCOC(=O)c1cnc(SCc2nc(N)nc(Nc3ccc(C)cc3)n2)nc1N,0.779,0.9%,/,/,/,/,2.6,/,/
O=c1[nH]c2ccc(S(=O)(=O)Nc3ccc(-c4nnc5n4CCCCC5)cc3)cc2o1,0.683,26.7%,/,/,/,-7.2,1.0,/,/
O=C(CCC(=O)Nc1ccc(Cl)cc1Cl)NNC(=O)Nc1ccccc1,0.733,1.0%,23.5,12.9,3.5,-4.7,0.6,1.1,i
CN(C(=O)c1cccc(NC(=O)Cc2ccc(NC(=O)C3CCCN(S(=O)(=O)c4cccc([N+](=O)[O-])c4)C3)cc2)c1)C1CCCC1 (stereo not drawn),0.684,2.8%,5.8,10.3,0.7,/,-1.8,0.3,i
CC(C)(C)C(=O)Nc1ccc2c(c1)-c1cc(NC(=O)C(C)(C)C)ccc1C2,0.753,-4.0%,/,/,/,/,-0.2,/,/
COc1cc(Nc2ccc(C(=O)O)cc2[N+](=O)[O-])cc(OC)c1,0.719,24.2%,0.6,2.9,-4.0,-23.3,3.4,7.6,i
CCOC(=O)CSc1nc2ccccc2c(=O)n1CCC(=O)NCCc1ccc(OC)c(OC)c1,0.722,6.2%,/,/,/,-4.9,0.7,/,/
CN1C(=O)c2cc(NC(=O)c3cccs3)ccc2OC[C@@H]2O[C@H](CC(=O)NCCN3CCCCC3)CC[C@H]21,/,/,1.0,-10.6,-0.5,/,/,-3.5,i
COC(=O)c1cn(-c2nc(C)c3c(n2)CCC3)nn1,0.698,/,11.4,-12.4,0.9,-26.2,-1.7,-1.3,i
O=C(COC(=O)/C=C/c1ccc(S(=O)(=O)N2CCCCCC2)cc1)NCc1ccccc1Cl,0.748,2.6%,6.8,8.6,-3.8,-3.5,-2.2,4.1,i
COc1ccc(Nc2nnc(Cc3ccccc3)c(=O)[nH]2)c(OC)c1,0.699,?,/,/,/,-30.3,2.4,/,/
COC(=O)C1=C(C)NC(C)=C(C(=O)OC)C1C(=O)OC(C)C(=O)c1ccccc1 (stereo not drawn),0.652&0.7,-7.7%&-10.1%,4.3&7.3,0.3&0.8,0.6&3.0,-4.1,3.9&2.2,0.2&-0.5,i
Cc1nc(C)c(-c2nnc(-c3ccccc3Cl)o2)cc1C(=O)NN,0.681,3.0%,-2.4,-9.2,-0.1,14.3,-3.1,-11.5,i
O=C1CCc2cc(NS(=O)(=O)c3ccc(Cl)cc3)cc3c2N1CC3,0.695,-3.2%,-5.5,-10.4,1.4,10.9,0.3,-0.3,/
COc1ccc(S(=O)(=O)Nc2ccc3c(c2)C(=O)N([C@@H](C)CO)C[C@H](C)[C@@H](CN(C)C(=O)Nc2c(C)noc2C)OCCCC[C@H](C)O3)cc1,/,/,-0.4,-5.7,0.0,/,/,-3.8,i
Cc1ccc(NC(=O)/C(=C/c2cccc(Br)c2)NC(=O)c2ccco2)cc1,0.646,5.2%,/,/,/,0.9,0.1,/,/
Cc1cc(NC(=O)Cc2cn3ccsc3n2)n(-c2ccccc2)n1,0.729,4.7%,/,/,/,-8.3,-1.1,/,/
O=C(NCc1ccc(F)cc1)c1cc(S(=O)(=O)N2CCCCC2)ccc1Cl,0.664,-8.9%,-2.4,24.2,-2.8,-2.3,-2.9,-0.4,i
CCOC(=O)N/N=C(\C)c1ccc(Oc2ncccn2)cc1,/,-7.8%,4.7,10.4,3.0,-14.5,9.3,-2.2,i
CCOc1ccc(S(=O)(=O)Nc2cc(S(=O)(=O)N(CC)CC)ccc2N2CCCC2)cc1,0.721,12.2%,/,/,/,12.1,-0.7,/,/
O=C(O)C1=C[C@H](c2ccc(C(F)(F)F)cc2)C[C@H](OCCCCO)O1,/,/,/,/,/,29.8,4.4,-1.5,i
O=c1c(F)cn(C2CCCO2)c(=O)n1Cc1ccccc1F (stereo not drawn),0.653,?,8.6,-4.2,-0.3,-3.8,-0.1,-9.1,i
COc1ccc(C2/C=C\CN(C(=O)OCC3c4ccccc4-c4ccccc43)CC(=O)N2Cc2cccc(F)c2)cc1 (stereo not drawn),0.715,-3.9%,14.5,23.1,6.6,/,1.8,-4.4,i
CN(C)c1ccc(-c2ccc([C@H]3[C@@H]4C=CCC[C@@]4(C)C(=O)N3Cc3ccccc3)c(F)c2)cc1,/,/,19.6,12.7,4.6,/,0.7,12.4,i
O=S(=O)(c1ccc(Cl)nc1)N1CCN(c2ncccn2)CC1,0.711,1.5%,4.8,0.1,-5.4,-2.8,1.4,-12.0,i
CN(C)c1ccc(S(=O)(=O)NCC(=O)N2CCN(S(=O)(=O)c3cccc(F)c3)CC2)cc1[N+](=O)[O-],0.697,/,-9.0,-12.6,13.3,/,-1.7,9.2,i
COc1ccc(CCN2C(=O)/C(=C\c3ccco3)SC2=S)cc1OC,0.761,0.3%,-21.3,-5.2,16.9,/,6.7,1.1,i
Cc1ccc(OC(=O)C(C)c2cccc(C(=O)c3ccccc3)c2)cc1 (stereo not drawn),0.658,25.0%,-6.8,-5.0,2.2,0.3,-1.5,-57.7,i
COc1ccc(NC(=O)CN2CCN(c3c(C)cccc3C)CC2)cc1,0.62,/,-23.4,-63.1,16.3,-12.2,-0.7,5.9,i
Cc1cnn(C(=O)c2oc3ccccc3c2C)c1,0.653,1.9%,9.7,8.9,-6.6,0.4,2.6,-0.2,i
Cc1cccn2c(=O)c3cc(C(=O)NC4CCCCC4)c(=N)n(Cc4ccc(F)cc4)c3nc12,0.671,0.1%,2.0,-2.9,-2.6,-0.1,10.6,-0.3,i
C[C@@H]1CCCCO[C@H](CN(C)C(=O)c2ccccc2)[C@H](C)CN([C@@H](C)CO)C(=O)c2cc(NC(=O)NC3CCCCC3)ccc2O1,/,/,-4.9,1.9,-2.5,/,/,-0.1,i
CCCNC(=O)N1C[C@H](C)[C@H](OC)CN(C)C(=O)c2cc(NC(C)=O)ccc2OC[C@H]1C,/,/,-1.1,0.6,-0.1,/,/,-1.1,i
Cc1ccc(S(=O)(=O)NC(=O)Nc2cccc(S(=O)(=O)N(C)C)c2)cc1,0.695,/,12.3,10.9,-0.1,8.2,0.8,-4.6,i
Cc1noc(C)c1NC(=O)Nc1ccc2c(c1)C(=O)N([C@@H](C)CO)C[C@H](C)[C@@H](CN(C)S(=O)(=O)c1ccc(Cl)cc1)OCCCC[C@H](C)O2,/,/,-2.4,-5.1,3.8,/,/,4.3,i
CCOC(=O)N1CCC(NC(=O)c2ccc3c(c2)N(Cc2ccc(C)cc2)CCS3)CC1,0.726,-31.8%,-2.0,-2.8,4.4,7.8,0.6,-23.1,i
COc1cc(-c2cc(OC)c3c(C)oc(C)c3c(=O)c2)ccc1O,0.686,?,9.9,9.1,1.0,90.9*,5.2,12.0,i
O=S(=O)(NC1CCCCC1)c1ccc(Cl)s1,0.605,6.2%,8.1,2.6,3.7,-1.2,1.8,6.9,i
CCc1nc2ccc(C(=O)N3CCN(S(=O)(=O)CC)CC3)cn2c1N(CC)C(=O)NCCc1ccccc1,/,/,2.8,-1.6,-2.0,/,-1.2,-1.1,i
Cc1nc(N)sc1N=Nc1ccc(Br)cc1,0.703,21.7%,/,/,/,98.9*,3.8,/,/
CCN(CC)CCCNC(=O)c1nn2c(C(F)(F)F)cc(-c3ccccc3)nc2c1Cl,0.711,/,-1.5,2.6,-2.2,-13.3,1.5,0.1,i
CCCNC(=O)N(C)C[C@H]1Oc2cc(C#CCOC)ccc2S(=O)(=O)N([C@H](C)CO)C[C@H]1C,/,/,1.3,9.0,-0.5,/,/,-2.5,i
O=C(Nc1cc(S(=O)(=O)N2CCCCC2)ccc1Cl)c1ccc(F)cc1,0.704,/,4.5,7.5,-3.1,/,0.5,-8.6,i
COc1ccc(-c2nn(-c3ccccc3)cc2/C=N/n2cnnc2)cc1OC,/,0.8%,/,/,/,0.9,-2.1,/,/
CCc1cc2c(=O)c(-c3nc(C)cs3)c(CCCC(=O)O)oc2cc1O,0.779,10.8%,4.3,21.5,8.2,2.5,1.9,-1.5,i
O=C(/C=C/c1cccc(Br)c1)OCC(=O)N1CCN(c2ccccc2)CC1,0.649,-1.3%,-1.0,-4.8,-1.8,2.3,0.3,3.9,i
O=C(CC1C(=O)NCCN1Cc1ccc(F)cc1)NCCCn1cccn1 (stereo not drawn),0.707,-0.5%,13.5,19.6,2.4,/,-3.8,2.0,i
C[C@@H]1CN([C@@H](C)CO)C(=O)c2cc(NC(=O)Cc3ccccc3)ccc2O[C@@H]1CN(C)Cc1ccc(Oc2ccccc2)cc1,/,/,-6.8,-26.8,19.0,/,/,2.8,i
OCCCc1nc2ccccc2n1CCOc1ccccc1,0.7,-1.1%,/,/,/,-7.2,0.6,/,/
Cc1cc2occ(CC(=O)N(C)CC(=O)Nc3ccccc3C(F)(F)F)c2cc1C,0.634,/,2.4,-27.8,-3.8,/,-0.9,-2.0,i
CCOC(=O)c1cc(S(=O)(=O)NCC2CCN(Cc3cccc(C)c3)CC2)cn1C,0.603,/,7.6,7.2,5.4,3.7,2.8,-1.2,i
